L929 necroptosis: blocks zVAD induced death of L929 cells; L929 zVAD necroptosis rescue, ATP luminescence, 24 h; with zVAD 60 µM; viability rescue, % at 10 µM; 220,000 compounds, 0.38% hits; AID 1377;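 active = activation, scaled between plate controls, above about 75%, limit read from the data; inactive = activation under that limit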;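 also: 0% = zVAD with DMSO and 100% = DMSO alone without zVAD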
TNF death inh: inhibitors of TNF-alpha induced necroptosis in Jurkat FADD-/- cells. Jurkat FADD-/- TNF necroptosis rescue, ATP luminescence, 24 h; 0 = TNF only, 100 = no-TNF cells. 220,000 compounds, 0.068% hits. AID 463075. activation (protection from cell death), % at 10 µM;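 active = activation, meaning protection from cell death, of at least 50% relative to plate controls; inactive = activation below 50%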;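 also: necroptosis triggered by 40 ng/mL TNF-alpha added together with compound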
Cl transport mod: modulators of human KCC2 chloride dependent transport; Q9H2X9; KCC2 cells, thallium flux FluoZin-2 fluorescence; B-score of Tl+ flux slope (higher = more flux/activation; lower = inhibition) at 10 µM; 190,000 compounds, 2.2% hits;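 active = thallium flux slope and its plate-corrected score both differing from the plate sample mean at a set confidence after two filtering rounds, in either direction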;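 also: slope of fluorescence scaled to starting intensity during 10 to 20 s after thallium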
Target sequence (Q9H2X9 whole entry, looked up): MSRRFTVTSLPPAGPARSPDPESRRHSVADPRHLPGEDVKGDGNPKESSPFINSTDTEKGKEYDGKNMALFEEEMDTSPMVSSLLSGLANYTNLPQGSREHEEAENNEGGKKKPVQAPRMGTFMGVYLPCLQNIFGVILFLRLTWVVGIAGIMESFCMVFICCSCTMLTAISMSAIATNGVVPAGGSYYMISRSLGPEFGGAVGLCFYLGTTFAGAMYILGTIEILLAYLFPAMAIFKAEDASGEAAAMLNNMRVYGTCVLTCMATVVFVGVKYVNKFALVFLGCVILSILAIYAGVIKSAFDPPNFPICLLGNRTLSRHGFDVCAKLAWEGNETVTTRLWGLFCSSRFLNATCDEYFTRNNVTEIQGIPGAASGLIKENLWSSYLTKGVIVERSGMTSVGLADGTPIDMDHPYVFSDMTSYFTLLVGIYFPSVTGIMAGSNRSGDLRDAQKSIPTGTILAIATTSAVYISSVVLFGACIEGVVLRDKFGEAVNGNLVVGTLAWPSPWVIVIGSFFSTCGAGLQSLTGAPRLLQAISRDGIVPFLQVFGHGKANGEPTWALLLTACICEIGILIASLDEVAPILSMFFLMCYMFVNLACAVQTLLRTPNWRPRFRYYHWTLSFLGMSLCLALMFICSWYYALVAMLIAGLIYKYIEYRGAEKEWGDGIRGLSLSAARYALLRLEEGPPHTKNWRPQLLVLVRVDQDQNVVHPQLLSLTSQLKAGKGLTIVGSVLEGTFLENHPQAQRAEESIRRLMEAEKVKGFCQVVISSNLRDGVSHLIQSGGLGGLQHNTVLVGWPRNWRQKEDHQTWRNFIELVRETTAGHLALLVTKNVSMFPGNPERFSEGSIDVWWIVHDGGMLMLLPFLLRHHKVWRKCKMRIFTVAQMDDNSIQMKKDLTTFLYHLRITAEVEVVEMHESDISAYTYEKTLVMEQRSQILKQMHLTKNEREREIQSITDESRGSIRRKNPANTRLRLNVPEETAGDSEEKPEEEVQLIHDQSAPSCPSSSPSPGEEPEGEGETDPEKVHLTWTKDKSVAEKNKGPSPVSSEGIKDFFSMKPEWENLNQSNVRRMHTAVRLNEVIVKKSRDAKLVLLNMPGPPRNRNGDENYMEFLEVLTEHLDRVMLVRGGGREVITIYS
Hck-Nef inh: human Hck-Nef kinase inhibition. P08631. Recombinant Hck-YEEI plus Nef, Z-Lyte FRET kinase assay. inhibition, % at 20 µM. 220,000 compounds, 0.68% hits. AID 463187;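 active = Hck-Nef kinase inhibition above about 50%, limit read from the data; inactive = inhibition below that limit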;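 also: 0% = DMSO with Hck plus Nef and 100% = Hck alone without Nef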
Rad51 HR inh: Rad51 (human) homologous recombination inhibition. hRad51 DNA strand exchange, fluorescence dequenching. Q06609. inhibition, % at 10 µM. AID 1385. 200,000 compounds, 0.085% hits;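 active = inhibition above 40% at the single screening dose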;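 also: 0% = DMSO control wells and 100% = blanks with heterologous ssDNA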
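material = hRad51 filaments on single-stranded DNA | reagent = Donor/quencher-labelled 47-bp dsDNA substrate | compound = 10 µM final, single point | schedule = strand-exchange reaction 15 min at room temperature | measured by = fluorescein emission 520 nm, excitation 485 nm | read-out basis = % inhibition versus plate control and blank means | benchmarks = plate controls and plate blanks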
* marks the source's active call; other numbers are inactive results; · = not tested or not shown; & = joins results of further samples.

SMILES	L929 necroptosis	TNF death inh	Cl transport mod	Hck-Nef inh	Rad51 HR inh
CC(=O)O[C@H]1C(=O)[C@@]2(C)[C@H]([C@H](OC(=O)c3ccccc3)[C@]3(O)C[C@H](OC(=O)[C@H](O)C(NC(=O)c4ccccc4)c4ccccc4)C(C)=C1C3(C)C)[C@]1(OC(C)=O)CO[C@@H]1C[C@@H]2O (some centres undefined)	0.0	-16	0.0077	16	-2
Nc1nc(-c2cccnc2)nn1C(=O)Cc1ccccc1	-0.1	-1.9	·	1	5
O=C(O)C[C@@H](O)C(=O)O	2.1	0.7	-0.83	1	-2
CC[N+](C)(C)c1cccc(O)c1	5.5	1.3	0.39	14	-5
Nc1nc(-c2ccco2)nn1C(=O)c1ccccc1	0.3	-2.3	2.3	-2	-2
COc1ccc(-c2nn(-c3ccccc3)cc2C(=O)n2nnc3ccccc32)cc1	-0.2	-13	0.00096	19	2
O=C(COC(=O)/C=C/c1ccco1)Nc1cccc([N+](=O)[O-])c1	0.1	0.5	-0.3	-1	-6
Cc1[nH]c(=O)c(C#N)cc1-c1ccncc1	3.5	-0.1	-0.22	20	1&30
CCOC(=O)c1ccc(N=Cc2nc(-c3ccccc3)oc2OC(C)=O)cc1	-1.2	-6.6	·	1	-3
CSc1nc(-c2ccccc2)nn1C(=O)c1ccco1	0.0	-3.0	-0.0065	1	11
COc1cc(OC)cc(C(=O)n2cnnc2N)c1	1.4	-0.4	0.28	-2	-5
COC(=O)C1=C(C)NC(C)=C(C(=O)OCCN(C)Cc2ccccc2)C1c1cccc([N+](=O)[O-])c1 (centres undefined)	-0.4	1.5	-1.1	-1	6
O=C(O)c1ccc(N=Cc2nc(-c3ccco3)oc2O)cc1	1.4	-0.1	0.43	22	5
O=C(O)c1cc(-c2ccccc2)nc2ccccc12	1.3	-0.6	-0.38	2	-4
COC(=O)c1nc(NC(=O)c2ccc(C(C)(C)C)cc2)n[nH]1	0.8	0.1	-0.94	24	1
CSc1nc(-c2ccc(Cl)cc2)nn1C(=O)c1ccco1	0.9	-2.0	0.23	-14	-5
COc1ccc2c3c1O[C@H]1C[C@@H](O)C=C[C@@]31CCN(C)C2	·	·	-2.7	·	8
CC(=O)c1sc2ccccc2c1OC(=O)c1ccco1	-0.4	-0.6	·	32	·
NC(=O)c1cccnc1	-0.3	2.6	1.5	-7	-2
COC(=O)NNC(=S)NCc1ccc(C)cc1	0.7	1.9	0.3	-1	-5
CN=C(NC#N)NCCSCc1nc[nH]c1C	6.1	1.2	-0.17	1	-1
COC(=O)[C@@H]1[C@H]2C[C@H]3c4[nH]c5ccccc5c4CCN3C[C@@H]2CC[C@@H]1O	·	·	·	·	-6
N=C(N)c1ccc(OCCCCCOc2ccc(C(=N)N)cc2)cc1	-0.3	-0.9	0.17	3	6
CN1CCCC1c1cccnc1 (centres undefined)	·	·	·	·	3
NC(=O)CC[C@@H]1NC(=O)[C@H](Cc2ccccc2)NC(=O)[C@H](Cc2ccc(O)cc2)NC(=O)[C@@H](N)CSSC[C@@H](C(=O)N2CCC[C@H]2C(=O)N[C@@H](CCCN=C(N)N)C(=O)NCC(N)=O)NC(=O)[C@H](CC(N)=O)NC1=O	0.7	1.3	1.8e-05	-8	·

Profiles, quoted from the list. Values in the order: L929 necroptosis | TNF death inh | Cl transport mod | Hck-Nef inh | Rad51 HR inh
`CN1CCCC1c1cccnc1` (centres undefined) is listed as · | · | · | · | 3
`COc1cc(OC)cc(C(=O)n2cnnc2N)c1` is listed as 1.4 | -0.4 | 0.28 | -2 | -5
`O=C(O)c1ccc(N=Cc2nc(-c3ccco3)oc2O)cc1` is listed as 1.4 | -0.1 | 0.43 | 22 | 5
`CSc1nc(-c2ccc(Cl)cc2)nn1C(=O)c1ccco1` is listed as 0.9 | -2.0 | 0.23 | -14 | -5

Entries shown so far containing an aryl methoxy group:
SMILES	L929 necroptosis	TNF death inh	Cl transport mod	Hck-Nef inh	Rad51 HR inh
COc1ccc(-c2nn(-c3ccccc3)cc2C(=O)n2nnc3ccccc32)cc1	-0.2	-13	0.00096	19	2
COc1cc(OC)cc(C(=O)n2cnnc2N)c1	1.4	-0.4	0.28	-2	-5
COc1ccc2c3c1O[C@H]1C[C@@H](O)C=C[C@@]31CCN(C)C2	·	·	-2.7	·	8

Remaining list, next part.
SMILES	L929 necroptosis	TNF death inh	Cl transport mod	Hck-Nef inh	Rad51 HR inh
CCN(CC)CCOc1ccc(/C(=C(/Cl)c2ccccc2)c2ccccc2)cc1	12	0.1	1.5	31	18
Cc1cccc(CN2CCN(C(c3ccccc3)c3ccc(Cl)cc3)CC2)c1 (centres undefined)	2.5	0.5	0.4	-1	-1
CCCOc1ccc(C(=O)CCC(=O)OCC(=O)Nc2ccc(OCC)cc2)cc1	-0.4	0.8	-0.67	2	-9
CC(C)NCC(O)COc1cccc2ccccc12 (centres undefined)	0.9	5.8	-0.15	19	-8
Cc1cc(C)cc(C(=O)n2cnnc2N)c1	-0.4	-2.9	0.75	-5	0
CCC(=O)n1nc(-c2ccccc2)nc1NCc1ccccc1	0.9	2.6	1.5	-27	-2

An excerpt. The share of hits here may be higher or lower than overall.
